TRPML1 blocker = blocks the human TRPML1 channel; Q9GZU1; TRPML1-inducible cells, Ca2+ dye fluorescence, FDSS; active compounds read low; inhibition of EC80 agonist-evoked calcium signal; activity change, negative = inhibition, % (test concentration not listed); hit rate 0.02% among 390,000; AID 624415; in the data active means activity change below about -50%; inconclusive means about -30% to -50%; inactive means above about -30%;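 also: stimulus is agonist 54-4 at its EC80 concentration; % is scaled to controls: 0 for no effect and ±100 for the full control effect; compound concentration not given in the record; the text of the record puts the active cut at -80%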
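Calcium fluorescence in TRPML1-DL cells induced overnight with Tet: a 110 s read after compound pin addition, then a 110 s antagonist read after challenge with 54-4 at 4 uM final (EC80).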
Sfp inh = inhibitors of Bacillus subtilis Sfp phosphopantetheinyl transferase. hit rate 3.5% among 310,000. Biochemical Sfp PPTase activity, qHTS. Potency, µM, for inactives: max response, negative = inhibition, usual class: inhibitors. Q9F4F7; active = well fitted inhibition curve with a large enough effect; inconclusive = small, poorly fitted or top-dose-only effect, or another doubt; inactive = no such curve, though single readings can be large or run the other way;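 also: the enzyme is Sfp with the accession as filed and its product quenches rhodamine fluorescence; potency is read from the fitted curve at half-maximal effect; 0% = enzyme reaction without inhibitor and -100% = no enzyme wells; top concentration of the series not given in the record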
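Sfp 15 nM + cpd, 15 min RT; start w/ rhodamine-CoA 5 uM, BHQ-2-YbbR 12.5 uM (final); 50 mM Hepes pH 7.6, 10 mM MgCl2, 0.01% NP-40, 0.01% BSA; read 525/598 nm at 0 and 30 min.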
PINK1 modulator = changes PINK1 expression; PINK1 immunofluorescence, high-content cytometry, 24 h; Potency, µM (series often up to 76.6 µM), for the others: at the highest dose activation (PINK1 increase), most hits filed as activators; hit rate 0.2% among 410,000; active = well fitted activation curve with a large enough effect; inconclusive = small, poorly fitted or top-dose-only effect; inactive = flat fitted curve, though single readings scatter; cell line not stated here;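 also: potency is read from the fitted curve at half-maximal effect; % of control where 0% means no effect; nearly all actives have a fitted effect of over 65% in size; a mitochondrial uncoupler was the plate control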
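Stable cell line treated 24 h with compounds at 5 concentrations (CCCP controls), then fixed and immunostained for PINK1 plus nuclear and cell stains; PINK1 immunofluorescence quantified by laser-scanning microplate cytometry.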
TRPV1 PAM = enhances activation of the human vanilloid receptor TRPV1 | potentiation, % at 8.33 µM | hit rate 0.02% among 320,000 | TRPV1-expressing cells, Fluo-8 calcium influx, capsaicin EC20 potentiation; host cell line not named in the record; control for the full effect not named in the record | AID 540277 | Q8NER1; active means potentiation above 80%; inconclusive means 30% to 80%; inactive means below 30%; also: 0% is about no effect
Target sequence (Q8NER1 whole entry, looked up): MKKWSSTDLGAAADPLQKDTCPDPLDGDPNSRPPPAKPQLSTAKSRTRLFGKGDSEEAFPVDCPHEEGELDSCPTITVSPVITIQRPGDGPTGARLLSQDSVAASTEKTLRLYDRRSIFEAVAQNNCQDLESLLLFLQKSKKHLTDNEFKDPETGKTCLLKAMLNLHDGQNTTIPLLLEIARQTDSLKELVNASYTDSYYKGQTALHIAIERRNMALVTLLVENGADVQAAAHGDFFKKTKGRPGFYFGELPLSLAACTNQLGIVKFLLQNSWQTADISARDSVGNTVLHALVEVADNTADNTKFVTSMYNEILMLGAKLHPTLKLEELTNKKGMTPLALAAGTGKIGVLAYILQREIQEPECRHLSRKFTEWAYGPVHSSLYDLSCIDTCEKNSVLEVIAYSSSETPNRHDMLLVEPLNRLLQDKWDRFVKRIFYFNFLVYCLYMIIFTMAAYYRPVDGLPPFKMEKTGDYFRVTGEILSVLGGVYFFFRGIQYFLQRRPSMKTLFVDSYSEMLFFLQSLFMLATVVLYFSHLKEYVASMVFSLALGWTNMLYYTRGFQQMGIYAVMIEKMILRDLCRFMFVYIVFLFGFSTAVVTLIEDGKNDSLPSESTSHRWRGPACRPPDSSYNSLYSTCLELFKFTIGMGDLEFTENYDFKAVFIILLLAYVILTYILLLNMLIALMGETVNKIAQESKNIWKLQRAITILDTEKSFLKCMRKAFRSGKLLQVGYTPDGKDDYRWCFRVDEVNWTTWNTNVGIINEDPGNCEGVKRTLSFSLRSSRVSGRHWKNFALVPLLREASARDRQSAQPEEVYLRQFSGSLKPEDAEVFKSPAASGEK
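TRPV1-expressing cells were cultured overnight at 35.5C and loaded with Fluo-8 calcium dye for 40 to 90 min at room temperature. After a 10 s baseline, compound was added and calcium influx was read kinetically for 3 min (ex 480/em 520 nm).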
ClpP mod = qHTS Assay for Activators of ClpP | ATP-dependent Clp protease proteolytic subunit (Bacillus subtilis (strain 168)), P80244 | purified B. subtilis ClpP, FRET peptide cleavage, 20 min | Potency, µM (top dose mostly 57.5 µM), for inactives: at the top dose activity change, negative = active | hit rate 1.9% among 340,000; active = well fitted falling curve with a large enough effect; inconclusive = small, poorly fitted or top-dose-only effect; inactive = no such curve, though single readings can be large or run the other way; also: potency is read from the fitted curve at half-maximal effect; the source files actives as falling curves though it sought activators and does not explain the sign; nearly all actives have a fitted effect of over 65% in size; many hits overshoot -100%
Target sequence (P80244 whole entry, looked up): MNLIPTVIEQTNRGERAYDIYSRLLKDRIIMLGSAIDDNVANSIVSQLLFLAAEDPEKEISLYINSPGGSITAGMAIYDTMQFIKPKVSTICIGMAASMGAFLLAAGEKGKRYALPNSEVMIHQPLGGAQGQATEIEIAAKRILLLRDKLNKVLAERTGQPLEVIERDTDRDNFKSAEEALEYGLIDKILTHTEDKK
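Buffer: 100 mM Tris/HCl pH8, 100 mM KCl, 0.05% low protease BSA, 2.5% glycerol, 0.01% Tween-20. ClpP 10 microg/mL final; 20 min RT; delta FRET normalized to ADEP and DMSO controls.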
TRPML1 agonist = activates the human TRPML1 channel. Q9GZU1. TRPML1-expressing cells, Ca2+ dye fluorescence, FDSS; host cell line not named in the record; reference of the full effect not given here. activation, % (test concentration not listed). hit rate 0.12% among 410,000; in the data active = activation above about 50%; inconclusive = about 30% to 50%; inactive = below about 30%; also: 0% is about no effect; the text of the record puts the active cut at 80%
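Cells: TRPML1-DL, 1X Tet inducer, ~16 h at 37 degrees C/5% CO2. Dye: ABD Ca8 no-wash + quencher, 45-90 min RT. Read: 10 s baseline, compound add, 110 s agonist phase; 54-4 EC80 (4uM final), 110 s antagonist phase.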
Menin MLL FP FL = menin-MLL binding inhibition, fluorescein peptide; FP activity change, % at 61.4 µM; Fluorescence polarization, fluorescein-MLL peptide displacement from menin; 290,000 tested, under 10 active; inconclusive = falling polarisation curve, or a change in total fluorescence; inactive = total fluorescence flat and polarisation flat or rising; no compound was filed as active; the % refers to the polarisation; negative = inhibition;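 also: % of control where 0% means no effect; inhibitors lower the polarisation; unlabelled MLL peptide was the positive control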
An asterisk follows results filed as active; ? = inconclusive; . = no result given; & = joins results of further samples.

SMILES,TRPML1 blocker,Sfp inh,PINK1 modulator,TRPV1 PAM,ClpP mod,TRPML1 agonist,Menin MLL FP FL
O=C(CNC(=O)c1ccc(Cl)cc1Cl)OCC(=O)c1ccc2c(c1)OCCO2,-9,14%,2.1%,-2,-4.2%,2.5,3.9
Nc1ccc(CSc2ccccc2)cc1,12,.,9.0%,.,.,1.0,.
Cc1nn(CC(=O)Nc2ccc(S(=O)(=O)N(C)C)cc2)c(C)c1[N+](=O)[O-],-16,13%,2.5%,2,.,-0.5,2.1
Cc1c(Cl)cccc1Nc1nn2c(=O)c3ccc(C(=O)N(C)Cc4ccccc4)cc3nc2s1,-3,.,-0.4%,.,47%,0.3,.
Cc1ccc2c(c1)N(CC(=O)NCCc1ccc(Cl)cc1)C(=O)c1cccnc1O2,5&-21,-4%,-3.1%&1.9%,-14,-0.9%&-1.8%,1.7&1.7,-6.3
Cc1nc(NC(=O)c2ccccc2)sc1-c1csc(Nc2ccc(Cl)cc2Cl)n1,.,-19%,.,1,.,.,6.5
C=CCNC(=O)CSc1nnc(-c2cccc(S(=O)(=O)N3CCOCC3)c2)o1,-8,.,1.7%,.,-2.4%,-1.1,.
CCCCCC(=O)Nc1cc(S(=O)(=O)N2CCCCC2)ccc1N1CCCCC1,64,.,9.8%,.,.,3.0,.
Cc1sc2c(c1C)CN(C(C)(C)C)CN2C(=O)c1ccccc1,7,-7%,2.5%,-14,0.8%,-0.1,?
O=C(COC(=O)CC1CC2CCC1C2)Nc1cccc(S(=O)(=O)NC2=NCCCCC2)c1 (stereo not drawn),19,-3%,0.5%,-18,0.6%,-1.4,1.4
CCCc1nc2c3ccccc3ccn2c1Cc1cccc(Cl)c1,.,.,7.7%,.,?,-0.2,.
CC(C)CNc1ncnc2c1cnn2Cc1ccccc1Cl,21,7%,5.7%,-13,.,1.4,-0.8
COc1cc(C=O)cc(Br)c1OCC(N)=O,23,20%,1.0%,9,.,-0.4,-1.4
COc1ccc(/C=N/NC(=O)c2cnccn2)c(OC)c1OC,-10,9%,0.8%,24,0.6%,-0.4,0.9
COCc1[nH]nc2c1C(c1ccccc1F)C(C#N)=C(N)O2 (stereo not drawn),12,11%,0.7%,-6,-3.1%,0.6,-0.6
O=C(NN=C1CCCCCCCCCCC1)c1ccccc1F,8,-5%,?,-10,1.8%,0.3,-2.1
CCCCn1cnc2c(SCc3ccccn3)nc(N)nc21,2,.,0.0%,.,.,-1.0,.
COc1ccc(NC(=O)CSc2nccn2Cc2ccc3c(c2)OCO3)cc1,-5,.,0.3%,.,-0.3%,0.5,.
COc1ccccc1C(=O)NC(CCSC)C(=O)OCC(=O)NC(=O)NCc1ccco1 (stereo not drawn),11,-23%,2.1%,-8,-13%,1.1,-1.4
Cc1ncc(CO)c(/C=N/NC(=O)c2cc3c(s2)CCCC3)c1O,4,3%,-2.8%,8,-24%,3.5,?
O=C(CN(Cc1cccs1)S(=O)(=O)c1ccc(S(=O)(=O)N2CCCCC2)cc1)Nc1ccccc1,-9,?,11%,-13,-3.1%,-0.4,3.9
CCOc1ccc(OCCC(=O)OCC(=O)Nc2ccc(Cl)cn2)cc1,-4,.,2.3%,-10,0.9%,1.4,.
CN(C)S(=O)(=O)c1cccc(COc2cccnc2[N+](=O)[O-])c1,-11,6%,2.2%,-3,0.2%,-1.0,3.8
Cc1c(C)c2ccc(OCC(=O)N(C)C3CCS(=O)(=O)C3)c(C)c2oc1=O (stereo not drawn),10,8%,6.4%,17,4.3%,-0.6,.
Cc1ccsc1C1C(C#N)=C(N)OC2=C1C(=O)CC(C)C2 (stereo not drawn),4,6%,-1.7%,1,-2.6%,1.7,0.0
O=C(CCC1CCCN(C(=O)c2ccncc2)C1)NCc1ccc(F)c(F)c1 (stereo not drawn),-10,15%,1.5%,1,0.1%,0.0,2.2
COc1cccc(Cn2c(=O)c(C)nc3cnc(Oc4ccccc4)nc32)c1,.,8%,-0.2%,.,.,.,-1.3
CC(=O)N/C(=C\c1ccccc1)C(=O)OCc1cccc(S(=O)(=O)N(C)C)c1,2,1%,0.5%,0,-3.6%,1.0,-2.4
COc1ccccc1-c1cc2nc(C)c(CCC(=O)Nc3cc(C)ccc3C)c(C)n2n1,9,.,4.3%,.,-11%,-0.5,.
CCc1ccc(C2CC(c3ccc(Cl)cc3)n3nc(N)nc3N2)cc1 (stereo not drawn),-1,2%,7.4%,2,0.3%,0.6,-1.0
O=C(O)c1ccc(-c2ccc(OS(=O)(=O)c3ccccc3F)cc2)cc1,25,-18%,0.2%,4,.,-0.1,1.6
N[C@@H](Cc1ccccc1)c1nnc2sc(SCc3ccccc3)nn12,27,45µM*,-3.0%,-6,1.5%,-0.2,2.7
Nc1nc2c(c(=O)[nH]1)C(c1ccccc1)C1=C(N2)c2ccccc2C1=O (stereo not drawn),3,?,0.5%,7,-1.3%,-0.3,-8.7
CN1CCc2c(sc3c2c(NCc2ccco2)nc2nnnn23)C1,4,11µM*,-1.4%,-10,18µM*,0.7,?
CCOC(=O)c1cnc(-c2ccccc2)nc1N,-7,9%,?,-8,-1.1%,1.2,0.3
O=C(O)CC(NC(=O)c1ccncc1)c1ccccc1 (stereo not drawn),-11,13%,1.0%,13,.,0.0,0.1
CC1C(=O)N2CCCc3cc(NC(=O)COc4ccc(Cl)cc4)cc1c32 (stereo not drawn),-5,.,1.3%,-10,.,1.7,.
CC(C)[C@H](NS(=O)(=O)c1ccccc1)C(=O)OCC(=O)Nc1ccccc1Sc1ccccc1,26,13%,2.8%,6,-3.0%,3.4,2.8
Cc1nc(N)c(Cc2ccccc2F)c(N)n1,23,17%,-0.8%,-31,.,0.6,0.3
Cc1cc(C)nc(NS(=O)(=O)c2ccc(N3C(=O)C4CC=C(Cl)CC4C3=O)cc2)n1 (stereo not drawn),12,5%,-1.0%,3,-0.6%,-1.0,7.8
Cc1ccc(-c2nsc3c(N4CCN(C(=O)c5ccco5)CC4)ncnc23)cc1,.,?,.,-11,.,.,2.9
COc1cccc(NC(=O)NC2CCCCC2C)c1 (stereo not drawn),8,-2%,1.7%,-6,.,0.7,2.4
CCOC(=O)CC1=C(C(=O)OCC)C(c2ccncc2)C(C#N)=C(N)O1 (stereo not drawn),-1,10%,0.3%,-11,-2.2%,0.5,0.3
COc1ccc(CCNC(=O)CN2CCN(c3ccccc3Cl)CC2)cc1,16,13%,-3.1%,24,-0.2%,-1.1,?
O=C(Nc1cc2cc([N+](=O)[O-])ccc2oc1=O)c1cccs1,.,17%,.,3,.,.,-0.7
COC(=O)c1sccc1S(=O)(=O)N(CC(=O)Nc1cc(C)cc(C)c1)c1ccc(Cl)cc1,23,.,2.3%,.,-2.7%,4.0,.
Cc1nnc(SCC(=O)NCc2ccc(N(C)C)cc2)c2nn(-c3ccccc3)c(C)c12,1,.,1.4%,.,0.5%,-0.1,.
CCC1(c2ccccc2)NC(=O)N(CC(=O)Nc2ccc3c(c2)CCC3)C1=O (stereo not drawn),2,.,-1.2%,.,-2.7%,1.0,.
Cc1cccc(Cn2c(N3CCN(C)CC3)nc3c2c(=O)[nH]c(=O)n3C)c1,-16,6%,-1.0%,-4,1.1%,-1.0,-4.7
Fc1ccc(-c2nn(-c3ccccc3Cl)c3c2cnc2ccccc23)cc1,42,.,4.7%,.,-25%,2.1,.
CC(=O)c1c(C)[nH]c(C(=O)OCC(=O)Nc2ccc(C)cc2[N+](=O)[O-])c1C,-1,19%,0.9%,5,-5.3%,4.0,5.5
Nc1nnc(N)c2ccccc12,-15,5%,1.9%,6,.,0.1,-2.3
Cc1ccc(C(=O)Cn2cncn2)cc1,-8,21%,0.6%,-3,-0.2%,-0.1,-6.9
CC(C(=O)Nc1ccc(S(=O)(=O)N2CCCC2)cc1)N1CCc2ccccc2C1 (stereo not drawn),14,.,1.2%,-13,0.1%,-0.5,.
COc1ccc(-n2c(SCC(=O)Nc3ccccc3OC)nc(O)c(Cc3ccccc3)c2=O)cc1,4,-13%,5.1%,28,-2.4%,0.1,0.5
CCOC(=O)c1c(S(=O)(=O)NCC(=O)N2CCN(c3ccccc3OC)CC2)c(C)n(C)c1C,-11&-16,11%,0.1%&1.2%,?,1.2%&1.3%,0.7&1.0,.
CC(=O)N(C)c1ccc(OCC(O)CN(Cc2ccco2)S(=O)(=O)c2ccc(C)cc2)cc1 (stereo not drawn),-20,-10%,2.2%,-20,-1.8%,2.1,-0.7
COc1cc(Cl)c(C)cc1NC(=O)CCN1C(=O)NC(C)(C)C1=O,44,.,2.6%,-20,.,-0.6,.
O=C(COC(=O)CCc1nc2ccccc2c(=O)[nH]1)Nc1ccccc1Cl,-5,-9%,-1.1%,13,-0.3%,0.3,?
CCOC(=O)c1ccc(Oc2nc(N(C)C)nc(N3CCOCC3)n2)cc1,-14,14%,0.8%,-2,2.3%,0.7,-3.6

Given field by field: entries from further up.
> Cc1cccc(Cn2c(N3CCN(C)CC3)nc3c2c(=O)[nH]c(=O)n3C)c1
  TRPML1 blocker: -16
  Sfp inh: 6%
  PINK1 modulator: -1.0%
  TRPV1 PAM: -4
  ClpP mod: 1.1%
  TRPML1 agonist: -1.0
  Menin MLL FP FL: -4.7
> Fc1ccc(-c2nn(-c3ccccc3Cl)c3c2cnc2ccccc23)cc1
  TRPML1 blocker: 42
  Sfp inh: .
  PINK1 modulator: 4.7%
  TRPV1 PAM: .
  ClpP mod: -25%
  TRPML1 agonist: 2.1
  Menin MLL FP FL: .

More entries:
SMILES,TRPML1 blocker,Sfp inh,PINK1 modulator,TRPV1 PAM,ClpP mod,TRPML1 agonist,Menin MLL FP FL
Cc1ccc(C(=O)NCC(=O)NCC(=O)OCc2ccc(Oc3ccc([N+](=O)[O-])cc3)cc2)cc1,3,.,-2.3%,.,-1.4%,1.3,.
Cc1cc(C)c(S(=O)(=O)c2ccccc2C)c(Oc2ccccc2)n1,-1,-3%,0.7%,-13,-0.2%,-1.4,-4.5
CN(C)Cc1c(C(=O)N/N=C/c2ccc(OCc3c(F)cccc3Cl)cc2)nnn1-c1nonc1N,51,8%,3.6%,11,.,2.2,.
Cc1ccccc1C(=O)N1CCC(C(=O)NC2CCCCCC2)CC1,-4,9%,1.8%,-6,.,0.9,.
CCN(CC)C(=O)C1=C(C)NC(=S)NC1c1ccc(C)s1 (stereo not drawn),2,2%,-0.4%,-11,.,-0.3,2.2
